Bioassay records from PubChem BioAssay.
Vif A3G: inhibitors of Vif binding to APOBEC3G peptide, primary screen, biochemical, TR-FRET, GST-Vif 1-94, biotin-A3G peptide, dose response retest (AID 1117319); hit rate 0.57% among 260,000; TR-FRET GST-Vif / biotin-A3G peptide binding; higher % means a stronger effect; test concentration not given here; strong numbers were not always called active; inhibition, %, or IC50 in µM where a hit was titrated;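 active means above the screen mean plus three standard deviations and confirmed in dose response; inconclusive means results disagree or hit not tested in dose response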;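 further: Vif residues 1-94 fused to GST binding biotinylated APOBEC3G peptide 110-148; 0% = full assay without inhibitor and 100% = GST in place of GST-Vif; retest series ran down from 100 µM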
HNF4A DNA FP: change in binding of human HNF4 alpha to DNA | HNF4a-FITC DNA binding, fluorescence polarization, 1 h | activity change, % at 10 µM | hit rate 0.3% among 360,000 | AID 1224865; in the data active means activity change above about 30%, passing the limit was not always enough;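 further: controls were the assay level and a saturating level of protein; the project sought stronger binding though the title names inhibitors; some compounds called inactive have numbers as strong as hits; positive values seem to mean higher polarization but the record does not say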
Ecoli rRNA inh: inhibits bacterial ribosomal RNA function over humanized ribosomes; E. coli WT GFP vs humanized-ribosome RFP mutants, fluorescence, 24 h; active compounds read low; DMSO median 0, no signal -100; GFP signal change (wild-type ribosome), % (test concentration not listed); hit rate 1.6% among 350,000; AID 720706;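 active means significant combined selectivity score with lowered wild-type GFP, culture density cut under 30%, mutant RFP and density less affected; inactive means any of these conditions unmet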; further: one replicate is shown; some compounds called inactive have numbers as strong as hits
AF4-AF9 inh: inhibitors of human MLL-AF4/AF9 interaction. inhibition, % at 10 µM. AID 651704. hit rate 0.47% among 350,000. AlphaScreen, biotin-AF4 peptide binding to FLAG-AF9;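 active means every replicate reaching a set inhibition limit, whatever the replicate mean, cut at about 25% in these data; inconclusive means mean inhibition reaches that limit but some replicates miss it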;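 further: 0% = plate neutral control median and 100% = total signal loss; the record names both 10 and 1 µM as test concentration; the first replicate is given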
Target sequence (P42568 whole entry, looked up): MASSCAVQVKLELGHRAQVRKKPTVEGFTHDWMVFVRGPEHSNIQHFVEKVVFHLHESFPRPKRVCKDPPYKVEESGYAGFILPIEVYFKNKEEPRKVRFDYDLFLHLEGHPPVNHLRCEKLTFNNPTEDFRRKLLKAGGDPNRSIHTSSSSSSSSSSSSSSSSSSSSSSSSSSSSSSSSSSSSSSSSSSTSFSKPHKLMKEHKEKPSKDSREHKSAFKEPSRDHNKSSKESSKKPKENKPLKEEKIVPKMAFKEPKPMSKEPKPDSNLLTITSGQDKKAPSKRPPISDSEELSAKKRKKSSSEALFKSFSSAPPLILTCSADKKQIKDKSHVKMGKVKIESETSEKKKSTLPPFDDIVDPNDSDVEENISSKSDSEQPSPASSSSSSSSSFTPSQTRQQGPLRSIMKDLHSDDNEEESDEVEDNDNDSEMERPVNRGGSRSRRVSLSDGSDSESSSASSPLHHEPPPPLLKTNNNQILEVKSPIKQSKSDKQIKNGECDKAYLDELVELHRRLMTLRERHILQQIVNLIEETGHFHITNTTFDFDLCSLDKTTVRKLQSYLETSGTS
ALR H2O2 inh: human ALR oxidase inhibition via reduced H2O2; P55789; purified ALR, DTT oxidation, H2O2 HRP-luminol luminescence; inhibition, % (test concentration not listed); hit rate 3.8% among 290,000;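 active means mean and each replicate at 75% or more; inconclusive means only one of the two met; inactive means neither met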;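 further: stock transfer was 7.5 nL into about 7.5 µL; 0% = neutral wells and 100% = wells with inactivated enzyme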
Target sequence (P55789 whole entry, looked up): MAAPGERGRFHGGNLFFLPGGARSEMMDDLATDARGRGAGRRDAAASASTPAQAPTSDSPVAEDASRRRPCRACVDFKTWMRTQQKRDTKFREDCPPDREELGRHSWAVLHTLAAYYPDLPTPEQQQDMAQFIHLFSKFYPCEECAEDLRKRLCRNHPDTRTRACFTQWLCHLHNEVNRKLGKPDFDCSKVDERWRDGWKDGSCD
FGF22 binding: FGF22 (human) thermal shift binding | calls only at 9.99 µM | recombinant FGF22 thermal shift, SYPRO orange fluorescence; percent of sucrose octasulfate shift, DMSO zero | hit rate 1.5% among 340,000 | Q9HCT0;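 active means melting point raised past a set limit in the mean and every replicate; inconclusive means no clear call; three in four hits are not shown here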
Target sequence (Q9HCT0 whole entry, looked up): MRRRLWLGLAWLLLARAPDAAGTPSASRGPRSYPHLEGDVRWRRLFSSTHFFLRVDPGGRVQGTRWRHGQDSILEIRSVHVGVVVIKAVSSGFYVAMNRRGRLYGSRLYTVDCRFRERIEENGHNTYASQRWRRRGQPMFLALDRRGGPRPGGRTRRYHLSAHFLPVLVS
E coli growth: E. coli growth inhibition; Escherichia coli growth, OD600, 23 h; active compounds read low; OD600 absorbance (concentration not given with the values); hit rate 0.21% among 330,000; AID 1053175;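 active means OD600 absorbance below the run mean of sample wells minus 3.6 SD, in any replicate, cut at about 0.56 in these data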;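 further: stock transfer was 300 nL into about 60 µL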
Ecoli rRNA inh OD600: second read-out of Ecoli rRNA inh, no call of its own (marks repeat the call); OD600 change, %; measured here: OD600 growth;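 optical density of the mix in the first replicate; 0 = DMSO median and -100 = no signal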
Ecoli rRNA inh RFP: also measured in Ecoli rRNA inh; calls as there; RFP signal change, %; measured here: RFP humanized mutant strains;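 first replicate; 0 = DMSO median and -100 = no signal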
An asterisk follows results filed as active; i = inactive; ? = inconclusive; . = not tested or not shown; & = joins results of further samples. The list is partial; rates above refer to the full screens.

#1 CCOC(=O)c1ccc(N2C(=O)CC(Sc3ncccn3)C2=O)cc1 (stereo not drawn)
#2 O=S(=O)(c1ccccc1)N1CCN(Cc2ccccc2)CC1
#3 COc1ccc(C2C(C#N)=C(N)N(c3ncn[nH]3)C3=C2C(=O)CCC3)cc1 (stereo not drawn)
#4 C[C@@H]1CN([C@H](C)CO)C(=O)c2cc(NC(=O)Nc3ccc4c(c3)OCO4)ccc2O[C@@H](C)CCCCO[C@@H]1CN(C)S(=O)(=O)c1cccs1
#5 C[C@@H]1NC(=O)[C@@]2(C)[C@@H](c3ccccc3)[C@H]3COc4ccc(Cl)cc4[C@@H]3N2C1=O
#6 CCOc1cc(C(C#N)N2CCOCC2)ccc1OC (stereo not drawn)
#7 CC(=O)Nc1ccc(S(=O)(=O)N2CCOCC2)cc1
#8 Cc1ccc(S(=O)(=O)Nc2ccc3c(c2)C(=O)N([C@H](C)CO)C[C@H](C)[C@H](CN(C)CC2CCCCC2)OCCCC[C@H](C)O3)cc1
#9 CCN1CCN(Cc2ccc(NC(=O)c3cc(NC(=O)C(=O)c4c[nH]c5ccccc45)cc(OC)c3)cc2C(F)(F)F)CC1
#10 c1ccc2c(c1)Cn1nnnc1-2

| assay / compound | 1 | 2 | 3 | 4 | 5 | 6 | 7 | 8 | 9 | 10 |
| --- | --- | --- | --- | --- | --- | --- | --- | --- | --- | --- |
| E coli growth | 0.7 | 0.69 | 0.67 | . | . | 0.69 | 0.69 | . | 0.66 | 0.68 |
| Ecoli rRNA inh | 11 | 4 | 9 | -1 | -1 | . | . | -28 | -24 | 15 |
| FGF22 binding | i | i | i | i | i | . | . | i | . | i |
| HNF4A DNA FP | -2.6 | -2.2 | 2.9 | . | -0.7 | 2.4 | -2.7 | . | 2.9&1.6 | 1.0 |
| Ecoli rRNA inh OD600 | 8 | 15 | 10 | -4 | -2 | . | . | -42 | -41 | 3 |
| Vif A3G | . | . | 0% | . | . | -1% | -7% | . | -5% | 6% |
| AF4-AF9 inh | 2.6 | -1.6 | -1.4 | 0.2 | 2.3 | . | . | -13 | 14 | -32 |
| ALR H2O2 inh | 2 | 0 | -17 | . | -11 | -10 | -12 | . | -20 | -28 |
| Ecoli rRNA inh RFP | 0.1 | -1.2 | 6.4 | -2.4 | 1.0 | . | . | 7.9 | 9.8 | -6.2 |

#11 CN1CCC(N(C)C(=O)/C(C#N)=C\c2ccc(OC(F)F)cc2)CC1
#12 CCCNC(=O)N(C)C[C@@H]1Oc2cc(C#CC3CC3)ccc2S(=O)(=O)N([C@@H](C)CO)C[C@@H]1C
#13 COc1ccc(/C=N/NC(=O)c2ccc(NC(=O)c3cccc([N+](=O)[O-])c3)cc2)c(C(=O)O)c1OC
#14 O=C(CSc1nnc(COc2ccccc2Cl)o1)NC(=O)NCc1ccco1
#15 CCCCC(O)(c1ccc(CC)cc1)C(CN1CCOCC1)c1ccccc1 (stereo not drawn)
#16 O/N=C/c1cc(Br)ccc1OCc1cccc(F)c1
#17 CCCNC(=O)N1CCCC(C(=O)c2cccc(Cl)c2)C1 (stereo not drawn)
#18 Cc1ccc(NC(=S)N(CCCN2CCC(C)CC2)Cc2ccco2)cc1
#19 COc1ccc(S(=O)(=O)Nc2ccc3c(c2)C(=O)N([C@H](C)CO)C[C@@H](C)[C@@H](CN(C)Cc2ccc(Cl)c(Cl)c2)OCCCC[C@H](C)O3)cc1
#20 CCCCC(CC)COC(=O)C(C#N)=C(c1ccccc1)c1ccccc1 (stereo not drawn)

| assay / compound | 11 | 12 | 13 | 14 | 15 | 16 | 17 | 18 | 19 | 20 |
| --- | --- | --- | --- | --- | --- | --- | --- | --- | --- | --- |
| E coli growth | 0.66 | . | . | 0.67 | 0.67 | . | 0.67 | 0.67 | . | 0.68 |
| Ecoli rRNA inh | 19 | -3 | -9 | -14 | -8 | . | 1 | 2 | 0 | 6 |
| FGF22 binding | i | i | i | i | i | . | i | i | i | i |
| HNF4A DNA FP | -2.2 | . | 0.1 | -32 | -3.4 | -6.3 | -2.7 | 0.9 | . | 2.9 |
| Ecoli rRNA inh OD600 | 13 | -8 | -6 | -11 | -30 | . | 0 | 2 | 8 | 8 |
| Vif A3G | -7% | . | . | ? | -8% | -3% | -1% | . | . | . |
| AF4-AF9 inh | -4.5 | 3.2 | 1.5 | 7.6 | 4.6 | . | -4.6 | 1.7 | -15 | . |
| ALR H2O2 inh | . | . | -4 | 0 | -4 | 0 | -9 | -40 | . | -16 |
| Ecoli rRNA inh RFP | 3.3 | -0.1 | 2.8 | 14 | 6.7 | . | 0.6 | 8.3 | -0.4 | 0.4 |

Two records picked at random from those above:
#14 O=C(CSc1nnc(COc2ccccc2Cl)o1)NC(=O)NCc1ccco1
#20 CCCCC(CC)COC(=O)C(C#N)=C(c1ccccc1)c1ccccc1 (stereo not drawn)

| assay / compound | 14 | 20 |
| --- | --- | --- |
| E coli growth | 0.67 | 0.68 |
| Ecoli rRNA inh | -14 | 6 |
| FGF22 binding | i | i |
| HNF4A DNA FP | -32 | 2.9 |
| Ecoli rRNA inh OD600 | -11 | 8 |
| Vif A3G | ? | . |
| AF4-AF9 inh | 7.6 | . |
| ALR H2O2 inh | 0 | -16 |
| Ecoli rRNA inh RFP | 14 | 0.4 |

Sorted by formula weight (ascending): 11 of the compounds above.
#7 CC(=O)Nc1ccc(S(=O)(=O)N2CCOCC2)cc1
#17 CCCNC(=O)N1CCCC(C(=O)c2cccc(Cl)c2)C1 (stereo not drawn)
#16 O/N=C/c1cc(Br)ccc1OCc1cccc(F)c1
#11 CN1CCC(N(C)C(=O)/C(C#N)=C\c2ccc(OC(F)F)cc2)CC1
#20 CCCCC(CC)COC(=O)C(C#N)=C(c1ccccc1)c1ccccc1 (stereo not drawn)
#14 O=C(CSc1nnc(COc2ccccc2Cl)o1)NC(=O)NCc1ccco1
#12 CCCNC(=O)N(C)C[C@@H]1Oc2cc(C#CC3CC3)ccc2S(=O)(=O)N([C@@H](C)CO)C[C@@H]1C
#13 COc1ccc(/C=N/NC(=O)c2ccc(NC(=O)c3cccc([N+](=O)[O-])c3)cc2)c(C(=O)O)c1OC
#9 CCN1CCN(Cc2ccc(NC(=O)c3cc(NC(=O)C(=O)c4c[nH]c5ccccc45)cc(OC)c3)cc2C(F)(F)F)CC1
#8 Cc1ccc(S(=O)(=O)Nc2ccc3c(c2)C(=O)N([C@H](C)CO)C[C@H](C)[C@H](CN(C)CC2CCCCC2)OCCCC[C@H](C)O3)cc1
#19 COc1ccc(S(=O)(=O)Nc2ccc3c(c2)C(=O)N([C@H](C)CO)C[C@@H](C)[C@@H](CN(C)Cc2ccc(Cl)c(Cl)c2)OCCCC[C@H](C)O3)cc1

| assay / compound | 7 | 17 | 16 | 11 | 20 | 14 | 12 | 13 | 9 | 8 | 19 |
| --- | --- | --- | --- | --- | --- | --- | --- | --- | --- | --- | --- |
| E coli growth | 0.69 | 0.67 | . | 0.66 | 0.68 | 0.67 | . | . | 0.66 | . | . |
| Ecoli rRNA inh | . | 1 | . | 19 | 6 | -14 | -3 | -9 | -24 | -28 | 0 |
| FGF22 binding | . | i | . | i | i | i | i | i | . | i | i |
| HNF4A DNA FP | -2.7 | -2.7 | -6.3 | -2.2 | 2.9 | -32 | . | 0.1 | 2.9&1.6 | . | . |
| Ecoli rRNA inh OD600 | . | 0 | . | 13 | 8 | -11 | -8 | -6 | -41 | -42 | 8 |
| Vif A3G | -7% | -1% | -3% | -7% | . | ? | . | . | -5% | . | . |
| AF4-AF9 inh | . | -4.6 | . | -4.5 | . | 7.6 | 3.2 | 1.5 | 14 | -13 | -15 |
| ALR H2O2 inh | -12 | -9 | 0 | . | -16 | 0 | . | -4 | -20 | . | . |
| Ecoli rRNA inh RFP | . | 0.6 | . | 3.3 | 0.4 | 14 | -0.1 | 2.8 | 9.8 | 7.9 | -0.4 |

Next part.
#21 O=C(C[C@H]1C[C@H]2c3cc(NC(=O)Nc4ccccc4)ccc3O[C@H]2[C@H](CO)O1)NCc1ccccc1
#22 O=C(COC(=O)c1cc(Cl)ccc1O)NCC1CCCO1 (stereo not drawn)
#23 O=S(=O)(NCC(c1ccccc1)N1CCNCC1)c1ccc(Cl)cc1 (stereo not drawn)
#24 CN(CC(=O)Nc1cccc(F)c1)C(=O)C1CCN(C(=O)c2ccc(Cl)cc2)CC1
#25 COc1cc(S(=O)(=O)n2ccc(C)n2)ccc1Cl
#26 CC1CCCCC12NC(=O)N(CC(=O)NCCc1ccc(F)cc1)C2=O (stereo not drawn)
#27 Cc1nn(-c2ccccc2)c(C)c1NC(=O)COc1ccccc1C#N
#28 O=C(CSc1nnc(-c2cccs2)o1)OC1CCCCC1
#29 Cc1ccc(Cc2c(-c3ccccc3)nc3c(Cl)cc(C(F)(F)F)cn23)cc1
#30 CC(Nc1ccc(S(=O)(=O)N2CCN(C)CC2)cc1[N+](=O)[O-])c1ccccc1 (stereo not drawn)
#31 N#C[C@H]1[C@H](c2ccc(C#Cc3ccccc3F)cc2)[C@@H](CO)N1C(=O)C1CCOCC1
#32 Cc1ccc(OC(=O)N(C)C[C@@H]2OCc3ccccc3-c3ccccc3C(=O)N([C@H](C)CO)C[C@@H]2C)cc1

| assay / compound | 21 | 22 | 23 | 24 | 25 | 26 | 27 | 28 | 29 | 30 | 31 | 32 |
| --- | --- | --- | --- | --- | --- | --- | --- | --- | --- | --- | --- | --- |
| E coli growth | . | 0.71 | 0.68 | . | . | 0.68 | . | 0.68 | . | 0.7 | . | . |
| Ecoli rRNA inh | 1 | 14 | . | -2 | -5 | 0 | 5 | . | 4 | 12 | 2 | -1 |
| FGF22 binding | i | . | . | i | i | i | i | . | i | i | i | i |
| HNF4A DNA FP | . | -3.5 | 1.8 | 0.0 | 0.7 | 1.5 | 3.2 | -0.1 | -5.7 | -1.3 | . | . |
| Ecoli rRNA inh OD600 | 0 | 9 | . | -3 | -11 | 6 | 15 | . | 4 | 6 | 3 | 2 |
| Vif A3G | . | 3% | -2% | -5% | 2% | . | . | 68% | . | 5% | . | . |
| AF4-AF9 inh | -0.5 | -0.7 | . | -3.6 | -6.2 | -1.2 | 2.5 | . | 0.0 | 18 | -1.4 | 1.5 |
| ALR H2O2 inh | . | . | -2 | . | -2 | . | . | -13 | . | . | . | . |
| Ecoli rRNA inh RFP | 2.9 | 1.5 | . | 0.0 | -2.0 | -2.1 | 2.1 | . | 4.1 | 1.8 | 9.8 | -0.9 |
